# From PubChem BioAssay
# GIV-Gai inh – inhibitors of GIV peptide binding to Galpha-i3, primary screen, biochemical, fluorescence polarization, FITC-GIV GBA peptide, rat Galphai3. Guanine nucleotide-binding protein G(i) subunit alpha-3 (Rattus norvegicus), P08753. 90 min; stronger effect = lower value; scaled: aluminum fluoride 0%, vehicle 100%. percent of control (FP), % (concentration not given with the values). hit rate 0.42% among 210,000. AID 1224905, 2016;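 active means replicate mean at 85% of control or lower, very high polarization wells dropped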;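 further: wells of about 15 µL received 100 nL stock; the first replicate is given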
# Target sequence (P08753 whole entry, looked up): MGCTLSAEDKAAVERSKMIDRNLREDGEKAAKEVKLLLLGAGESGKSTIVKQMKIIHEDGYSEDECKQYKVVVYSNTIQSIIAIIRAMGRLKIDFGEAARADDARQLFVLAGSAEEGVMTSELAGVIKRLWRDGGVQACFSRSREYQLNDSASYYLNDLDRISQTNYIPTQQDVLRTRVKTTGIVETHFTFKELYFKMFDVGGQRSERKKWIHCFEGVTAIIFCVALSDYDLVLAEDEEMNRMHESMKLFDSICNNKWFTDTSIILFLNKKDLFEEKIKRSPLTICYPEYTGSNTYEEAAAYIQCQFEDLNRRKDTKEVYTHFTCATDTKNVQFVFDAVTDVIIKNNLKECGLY
# * = called active by the depositor. This is a subset; the hit share may differ from the screen's.
SMILES,GIV-Gai inh
CCN(CC)CCNC(=O)c1cccc(CN2C(=O)C3CCCN3C(=O)c3ccccc32)c1 (stereo not given),100.4
O=C(NC1CCCC1)c1cc2c(s1)CN(C1CCCC1)C2,103.4
CC(C)n1cc(S(=O)(=O)N2CCN(c3ccc(Cl)cc3)CC2)c2cccnc21,112.1
O=c1nc2n(c3cc(Cl)ccc13)Cc1ccccc1-2,110.0
Cc1cc(C)nc(NS(=O)(=O)c2ccc(NC(=O)c3oc4ccccc4c3C)cc2)n1,103.9
CC1CC(C)(C)N(C(=O)Nc2ccc(Cl)c(Cl)c2)c2ccccc21 (stereo not given),113.5
CCCNC(=O)N1CCCC1c1cc(C)on1 (stereo not given),101.1
CCOC(=O)C1=C(C)N=c2s/c(=C/c3cc(Cl)ccc3O)c(=O)n2C1c1ccc(OC)c(OC)c1 (stereo not given),114.4
CCCCOc1ccc(C2Nc3ccccc3C(=O)N2c2ccc(C)c(Cl)c2)cc1 (stereo not given),135.5
O=C(CSc1nc2ccccc2c(=O)n1CCCCCC(=O)N1CCOCC1)c1ccc(Br)cc1,109.7
Cc1nn(C)c(=O)c2cc(S(=O)(=O)N3CCC(Cc4ccccc4)CC3)cn12,101.4
CCOC(=O)c1[nH]c(C)c(CCC(=O)N2CCCC(C(=O)NCCN3CCCC3)C2)c1C (stereo not given),112.6
CCOC(=O)c1c(C)oc2ccc(N(C(=O)c3ccccc3)S(=O)(=O)c3ccc(CC)cc3)cc12,110.6
Nc1c(C(=O)Nc2ccccn2)sc2nc(-c3cccs3)cc(C(F)(F)F)c12,42.5*
Cc1cc(C2CCCN2C(=O)c2ccccc2F)no1 (stereo not given),102.6

# Part of the list above, with bars between the fields.
compound | GIV-Gai inh
CCOC(=O)c1c(C)oc2ccc(N(C(=O)c3ccccc3)S(=O)(=O)c3ccc(CC)cc3)cc12 | 110.6
Nc1c(C(=O)Nc2ccccn2)sc2nc(-c3cccs3)cc(C(F)(F)F)c12 | 42.5*

# Next section:
SMILES,GIV-Gai inh
O=C(NN1C(=O)c2ccc([N+](=O)[O-])c3c([N+](=O)[O-])ccc(c23)C1=O)c1ccc([N+](=O)[O-])cc1,102.5
CC(c1nnc(SCC(=O)Nc2ccc3c(c2)OCO3)n1C)N1C(=O)COc2ccccc21 (stereo not given),103.8
CCCCN(C)C(=O)CN(C)S(=O)(=O)c1cc2c(cc1C)NC(=O)CO2,106.0
Fc1ccc(-c2nnc(-c3nc(N4CCN(c5ccccn5)CC4)c4ccccc4n3)o2)cc1,104.4
CC(C)(C)C(=O)[C@H]1[C@H](c2cccc(Br)c2)C(C#N)(C#N)[C@@H]2c3ccccc3C=CN21,112.6
CC(C)(C)C(C(Oc1ccc(Cl)cc1)n1cncn1)n1nnnc1C(c1ccccc1Cl)N1CCCCC1 (stereo not given),114.5
COCCCNC(=O)c1nnc2ccc(-c3ccccc3)nn12,104.9
CCOc1ccccc1OC(=O)c1cc2c(C)nn(-c3cccc(F)c3)c2s1,109.5
COc1ccc(C2C(C(=O)OCCc3ccccc3)=C(C)NC3=C2C(=O)CC(c2cccs2)C3)cc1OC (stereo not given),111.2
Cc1c(S(=O)(=O)N2CCCC2)c(C)n(C)c1-c1nnc(C2CCC2)o1,105.5
COc1ccc(-c2csc(-c3cc4cc(Cl)ccc4oc3=O)n2)cc1,115.8
Cc1cccc(-c2nc3ccccc3c3nnc(SCC(=O)NC4CC4)n23)c1,101.1
CC(=O)Nc1ccc2nc(N3CCC(C(=O)NC4CC4)CC3)cc(C)c2c1,100.4
CCOC(=O)C1=NN(c2ccc(Cl)cc2)C2(S1)c1ccccc1C(c1ccc(C(C)(C)C)cc1)=NN2c1ccccc1 (stereo not given),117.5
CC1CC2(C)Oc3ccccc3C3OCC1(COC(=O)NC1CCCCC1)C(C)C32 (stereo not given),110.6

# Continued, starting with the last two of the part before.
SMILES,GIV-Gai inh
CCOC(=O)C1=NN(c2ccc(Cl)cc2)C2(S1)c1ccccc1C(c1ccc(C(C)(C)C)cc1)=NN2c1ccccc1 (stereo not given),117.5
CC1CC2(C)Oc3ccccc3C3OCC1(COC(=O)NC1CCCCC1)C(C)C32 (stereo not given),110.6
O=c1n(Cc2ccc(F)cc2)nc2c(S(=O)(=O)N3CCCCCC3)cccn12,106.7
Cc1cc(C)nc(SCC(=O)N2c3ccccc3-c3c(ssc3=S)C2(C)C)n1,111.4
CCc1ccc(NS(=O)(=O)c2cc(-c3cc(C(F)(F)F)on3)sc2C)cc1,99.9
O=S(=O)(c1ccccc1)N1CCCN(c2nc3cccnc3s2)CC1,103.5
O=C(NC1CC1)c1n[nH]c2c1CCCC2,99.1
CC(C)(C)c1cc(CCCOC(=O)/C=C\C(=O)OCCCc2cc(C(C)(C)C)c(O)c(C(C)(C)C)c2)cc(C(C)(C)C)c1O,104.5
COc1ccc(S(=O)(=O)NC2CCN(C(=O)c3cccc(C)c3)CC2)cc1,94.2
CSc1nnc2c3ccccc3n(C)c2n1,102.5
Cc1nn(-c2nc3ccccc3[nH]2)c2c1C(c1cccc(F)c1)CC(=O)N2 (stereo not given),104.0
O=C(NC1CCCC1)c1nn(-c2ccccc2)c2ccccc12,103.2
O=C(Nc1ccc(F)cc1)N1CCC(n2cnc3ccccc3c2=O)CC1,109.1
N#CC1(C#N)[C@H](c2cccc(I)c2)[C@@H](C(=O)c2ccccc2)N2c3ccc(Cl)cc3C=C[C@@H]21,104.6
Cc1ccc(C)c(N2CCN(CCCNC(=O)c3csc(-c4ccncc4)n3)CC2)c1,106.6
O=C(CC1(O)C(=O)Nc2ccc(Br)cc21)c1ccco1 (stereo not given),110.5
CCc1nc(CN2C(=O)COc3ccc(S(=O)(=O)N4CCC(C)CC4)cc32)no1,105.1
Cc1cc(SCC(=O)NC(C)c2ccccc2)n2ncc(-c3ccc(F)cc3)c2n1 (stereo not given),95.7
Cc1nn(-c2ccccc2)c2sc(C(=O)Oc3cccc(F)c3)cc12,107.2
CC(=O)N1CCC(C(=O)NCc2ccccc2)(N(Cc2ccccc2)C(=O)c2ccc(C)cc2)CC1,107.3
CC(C)(C)c1cc(CCC(=O)OCCSCCOC(=O)CCc2cc(C(C)(C)C)c(O)c(C(C)(C)C)c2)cc(C(C)(C)C)c1O,104.6
CCOC(=O)N1CC=C2C(C#N)=C(N)C(C#N)(C#N)C(c3cccc(Cl)c3)C2C1 (stereo not given),122.1
CCOC(=O)C1=C(C)NC(=O)NC1c1cn(-c2ccccc2)nc1-c1ccc(OC)c(Cl)c1 (stereo not given),115.7
O=C(Nc1cccc(F)c1)N1CCN(Cc2cc(=O)n3nc(-c4ccccc4)sc3n2)CC1,102.2
CC1=C(n2nnc([N+](=O)[O-])n2)C(c2ccccc2[N+](=O)[O-])C(C#N)=C(N)O1 (stereo not given),104.7
COc1ccc(C2CC(=O)NC(SCC(=O)Nc3cc(Cl)cc(Cl)c3)=C2C#N)cc1OC (stereo not given),105.2
Cc1ccc2c(c1)Oc1cc(Cl)c(S(=O)(=O)N3CCCC3)cc1C(=O)N2,107.0
CC1(C)CC(=O)C2=C(C1)c1c(ccc3ccccc13)NC2c1cn(Cc2c(F)cccc2Cl)c2ccccc12 (stereo not given),121.2
O=S(=O)(c1cccs1)N1CCC2(CC1)NCCN=C2NCc1ccccc1F,106.5
C=CCOc1ccc(C(C2=C(O)CC(C)(C)CC2=O)C2C(=O)CC(C)(C)CC2=O)cc1OC (stereo not given),124.4
CCSCCSc1nc(-c2cccs2)cc(-c2ccccc2)c1C#N,108.6
CCn1c(CCc2ccc(NS(=O)(=O)c3cc(F)ccc3F)cc2)nc2ccccc21,196.9
O=C(NCCC1=CCCCC1)c1nnc(-c2ccc(S(=O)(=O)N3CCCC3)cc2)o1,98.5
CCOc1ccc(-c2noc(CSc3nc4cc(-c5ccccc5)sc4c(=O)n3C)n2)cc1,113.8
CC(C)C(NS(=O)(=O)c1ccccc1)c1nc(-c2ccc3c(c2)Sc2ccccc2C(=O)N3C)no1 (stereo not given),97.9
CC(=O)N/C(=C\c1ccc(F)cc1)C(=O)NC(Cc1c[nH]c2ccccc12)C(=O)O (stereo not given),111.6
O=C(c1ccc2cccc(O)c2n1)N1CCC(c2ccccc2)C1 (stereo not given),96.0
CCOC(CNC(=O)c1c[nH]c2ccc(S(=O)(=O)N(C)c3ccc(Br)cc3)cc2c1=O)OCC,103.8
C/C(O)=C1/C(=O)NC2(C)CC1c1cc([N+](=O)[O-])ccc1O2 (stereo not given),101.8
Cc1nn(-c2ccccc2)c(N2CCC(C(=O)N3CCOCC3)CC2)c1-n1c(C)ccc1C,107.6
Cc1nn(-c2ccc(F)cc2)c2sc(C(=O)Nc3ccc(Br)cc3F)cc12,107.0
CCOC(=O)N1CCN(C(=O)CSc2nc3c(c(=O)n2-c2ccc(F)cc2)SCC3)CC1,95.9
COc1ccc(CCNC(=O)CCCn2c(SCC(=O)NCCc3ccccc3)nc3ccccc3c2=O)cc1OC,118.9
COc1ccccc1NC(=O)CSc1nc2ccccc2n1S(=O)(=O)c1cc([N+](=O)[O-])ccc1C,121.5
CCCCOc1ccc(NC(=O)c2sc3nc(N)c(C#N)cc3c2N)cc1,116.3
CCOC(=O)C1CCN(S(=O)(=O)c2ccc(-c3ccno3)s2)CC1,97.2
O=C(CSc1nc2[nH]ncc2c(=O)n1-c1ccc(Br)cc1)c1ccc(Br)cc1,97.9

# Part of the list above, reformatted:
CC(C)C(NS(=O)(=O)c1ccccc1)c1nc(-c2ccc3c(c2)Sc2ccccc2C(=O)N3C)no1 (stereo not given)
  GIV-Gai inh = 97.9

CC(=O)N/C(=C\c1ccc(F)cc1)C(=O)NC(Cc1c[nH]c2ccccc12)C(=O)O (stereo not given)
  GIV-Gai inh = 111.6

O=C(c1ccc2cccc(O)c2n1)N1CCC(c2ccccc2)C1 (stereo not given)
  GIV-Gai inh = 96.0

CCOC(CNC(=O)c1c[nH]c2ccc(S(=O)(=O)N(C)c3ccc(Br)cc3)cc2c1=O)OCC
  GIV-Gai inh = 103.8

# Going on with the list.
SMILES,GIV-Gai inh
NC(=O)C1CCN(c2cc(-c3nc(-c4ccccc4)no3)c3ccccc3n2)CC1,127.4
Cc1noc(C)c1S(=O)(=O)N1CCC(CC(=O)NCc2cccnc2)CC1,101.9
Cc1noc(C2CCCCN2Cc2ccccc2)n1 (stereo not given),113.7
O=C(O)c1ccc(-n2ncc(N3CCCCC3)c(Cl)c2=O)cc1,103.8
CC(C)c1cc(C2CCCN2Cc2ccc(Cl)cc2)no1 (stereo not given),98.4
COCCNC(=O)c1ccc2c(c1)N(Cc1ccc(Cl)cc1)CCS2,106.2
CCOC(=O)CSc1nc2cc(C(=O)N3CCc4ccccc4C3)ccc2c(=O)n1Cc1ccccc1,106.4
CCOC(=O)CSc1nc2c(sc(=S)n2-c2cc(Cl)ccc2OC)c(=O)[nH]1,107.8
CN(C)C1c2cccc3cccc(c23)C1NS(=O)(=O)c1ccc(Cl)cc1 (stereo not given),116.5
COc1ccc(OC)c(N2CC(O)(c3cccc([N+](=O)[O-])c3)[N+]3=C2SCCC3)c1 (stereo not given),105.3
O=C(Nc1ccc(Cl)cc1)c1nnc(C2CCCN(C(=O)NC3CCCC3)C2)s1 (stereo not given),105.4
COc1cc(OC)cc(-c2noc(-c3nn(-c4cccc(F)c4)ccc3=O)n2)c1,101.0
CCOC(=O)C1CCN(C(=O)c2ccc(N3CC4CC(C3)c3cccc(=O)n3C4)c(NC(=O)c3ccc(F)cc3)c2)CC1 (stereo not given),107.7
O=C(c1ccco1)N1CCN(S(=O)(=O)c2ccc3c(c2)C(=NO)c2cc(S(=O)(=O)N4CCN(C(=O)c5ccco5)CC4)ccc2-3)CC1,105.8
Cc1csc(-c2cc(S(=O)(=O)N3c4ccccc4CC3C)c(C)s2)n1 (stereo not given),101.0
O=C(c1cccc(Br)c1)N1c2ccccc2Sc2ccccc21,113.4
CCCCN1C(=O)C(C)(C(=O)N2CCN(c3ccccc3F)CC2)Oc2cccnc21 (stereo not given),105.9
O=C(Cn1c(=O)c(CCC(=O)NC2CCCC2)nc2ccccc21)Nc1ccc2c(c1)OCO2,98.1
COCCNC(=O)c1sc2ncnc(N3CCN(c4ccccc4)CC3)c2c1C,102.1
COc1cccc(-c2cn3c4c(=O)n(C)c(=O)n(C)c4nc3n2Cc2ccccn2)c1,102.3
CCOc1ccc(N2C(=O)C3C4c5ccccc5C(C=Nc5ccccc5C(=O)O)(c5ccccc54)C3C2=O)cc1 (stereo not given),109.0
Cc1noc(C)c1C1CCCN1Cc1ccc(Br)cc1 (stereo not given),97.8
Cc1ccc(-c2nc(-c3ccc(-c4ccccc4)cc3)c(-c3ccc(-c4ccccc4)cc3)[nH]2)cc1,103.6
CC1(C)CC(=O)C2=C(C1)OC1=C(C(=O)CC(C)(C)C1)C2c1ccc(O)cc1,108.9
Cc1noc(-c2ccc(-c3noc(Cc4c(F)cccc4Cl)n3)cc2)n1,101.4
Cn1c(=O)cc2c3c(c(N4CCOCC4)ccc31)C(=O)c1ccccc1-2,105.0
O=C(Nc1ccc(F)cc1)N1CCN(Cc2cc(=O)n3nc(-c4ccc(F)cc4)sc3n2)CC1,100.7
CC1CCCN(c2ccc(C3Nc4ccc5ccccc5c4C4=C3C(=O)CC(C)(C)C4)cc2[N+](=O)[O-])C1 (stereo not given),114.7
CCOC(=O)N1CCC2(CC1)N=C(c1ccccc1)CC(c1cc(Cl)ccc1O)N2 (stereo not given),108.1
Cc1ccc(C(=O)NCc2nnc3n2CCCC3)s1,104.7
N#CC(=C1CCCCC1)c1nc(-c2ccccc2O)cs1,106.0
CC(C)c1ccc(-c2c(C#N)c(N)n3c(nc4ccccc43)c2C#N)cc1,103.3
CCOC(=O)C1=C(C)OC(N)=C(C#N)C1c1ccccc1C (stereo not given),108.4
COC(=O)c1sccc1NC(=O)Cn1cc(-c2nc(-c3ccc(OC)cc3)no2)ccc1=O,102.6
CC(C)c1cc(C2CCCN2Cc2cccnc2)no1 (stereo not given),101.6
OCC1OC2OC3(CCCCC3)OC2C2OC3(CCCCC3)OC12 (stereo not given),110.8
O=C(CSc1nc2ccccc2nc1Cc1ccc(F)cc1)N1CCNC1=O,109.9
O=C(Nc1nnc(SCC(=O)N2CCCC2)s1)NC1CCCCC1,102.4
CCCCC(=O)Nc1cnc(N2CCN(c3cc(C)ccc3C)CC2)c(C(=O)O)c1,110.2
Cc1ccc(-c2nn(-c3ccccc3)cc2/C=C2/NC(=S)N(c3ccccc3)C2=O)o1,109.8
